Screening results (PubChem BioAssay)
NPYLR7 agonist: agonists of mosquito NPYLR7 receptor, primary screen, cell-based, Aedes aegypti, calcium fluorescence, mosquito biting behavior; Aedes aegypti neuropeptide Y-like receptor 7 (NPYLR7); HEK293T NPYLR7/Galpha15, GCaMP6s calcium fluorescence; activation, % at 10 µM; 270,000 compounds, 0.15% hits; AID 1259423, 2018; in the data active = activation above about 40%;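 also: 0% = vehicle and 100% = reference agonist at the receptor; some compounds past the cut are filed as inactive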
NPYLR7 agonist max-min: further read-out of NPYLR7 agonist, marked with its call; activation, %; measured here: Max-Min RFU normalised activation; some inactives read as strong as hits;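 span of the calcium signal over five minutes; 0% = vehicle and 100% = native peptide agonist; compound fluorescence can raise it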
An asterisk follows results filed as active; & = joins results of further samples. Not all compounds are listed; rates above refer to the full screens.

The line under a structure holds: NPYLR7 agonist, NPYLR7 agonist max-min
O=C(Nc1ccc(-c2cccc(-c3ccc4c(c3)OCCO4)n2)cc1)c1ccc(F)c(Cl)c1
 : 7, 5
Fc1cccc(Oc2cc(-c3ccccc3)nc(SCc3ccccc3)n2)c1
 : -1, -2
CCN=c1scc(-c2ccc(OC(F)F)cc2)n1N=Cc1ccc2c(c1)OCO2
 : -3, -5
C/C(=C\c1ccccc1)CN1[C@@H]2CC[C@H]1CN(C)C(=O)C2
 : 1, 2
Cc1nn(-c2ccccc2)c(C)c1CNC(=O)CC(C)C
 : -4, -4
Cc1cnccc1N1CCCN(C(=O)Nc2nc(C)n(C)n2)CC1
 : 0, -6
COc1ccc(-c2cc(C(=O)NCc3ccc(F)cc3)n3nc(C(C)(C)C)cc3n2)cc1
 : -7, -7
O=C(Cc1cn2ccccc2n1)N1CCc2ccccc21
 : 2, 0
CC1=NN(c2ccc(Cl)c(C(=O)O)c2)C(=O)/C1=C\c1ccc(N(C)C)cc1
 : -1, -13
Cc1ccc(NC(=O)N2CCN(c3cccc(C(F)(F)F)c3)C(=O)C2C)cc1 (configuration not stated)
 : 2, 6
CC(C(=O)Nc1ccc(Br)cc1S(=O)(=O)N1CCOCC1)n1cncn1 (configuration not stated)
 : 6, 2
CCN(CC(=O)Nc1c(Cl)cccc1Cl)C(=O)CCn1c(=O)oc2cc(Cl)ccc21
 : 2, 2
Cn1cncc1C(=O)N1CC2(CCNCC2)CC1C(=O)O (configuration not stated)
 : -3, -11
O=C(NCc1nnc2n1CCCCC2)C1CC2(CCNCC2)CN1 (configuration not stated)
 : 16, 3
CCCNCc1c(CC)nn(-c2ccc(F)cc2)c1N1CCN(C(C)C)CC1
 : -16, -17
CC(C)c1cc(NCc2cccnc2N(C)Cc2ccccc2)ncn1
 : -1, 0
COc1cc(C)c(Cl)cc1S(=O)(=O)NCc1ccco1
 : 3, 1
CC(=O)c1ccc(N2CCN(C(C)C(=O)NC3CCCCC3C)CC2)cc1 (configuration not stated)
 : 2, 4
CCOC(=O)NC(=O)CSc1nnc(SC)s1
 : 4, 2
COCC(=O)Nc1ccc(N2CCN(C(=O)NCCc3ccc(OC)cc3)CC2)nc1
 : 15, 20
CCC(C(=O)Nc1cccc(C2SCC(=O)N2c2ccc(C)cc2C)c1)c1ccccc1 (configuration not stated)
 : 7, 14
O=C(CC1CCCC1)NCc1cc(-c2ccc(F)cc2F)on1
 : 1, 0
CCOc1ccc(CN(Cc2nc(C(=O)NCCc3ccccn3)co2)C(C)C)cc1
 : 13, 1
COCCNC(=O)CCN(Cc1ccco1)c1nc(-c2cccs2)nc2ccccc12
 : 15, 15
Cc1cccnc1N1CCN(C(=O)c2ccc3c(c2)OCCN3C)CC1
 : -2, 21
CCOC(=O)[C@@H]1[C@@H](O)C(=O)NC12CCN(C(=O)c1ccccc1)CC2
 : 8, 17
Cc1ccc(-c2nc(C=Nc3cccc(C)n3)c(O)o2)cc1
 : -4, -11
CCOc1ccc(-c2n[nH]c(=S)n2CC(=O)NCc2ccco2)cc1
 : 3, -2
Fc1cc(F)cc(CN(Cc2ccccc2)Cc2cccn2Cc2ccc(C(F)(F)F)cc2)c1
 : 26, 33
O=S(=O)(c1ccccc1Br)N1CCN(CC2CCCO2)CC1 (configuration not stated)
 : 0, 2
C=CCN1CCN(c2ccc(F)cc2F)C(=O)C1C (configuration not stated)
 : 0, 10
O=C(Cn1ccnc1-c1ccccc1)N1CCCC2(CCNCC2)CC1
 : 4, 4
Cc1sc(N/N=C\c2ccco2)nc1-c1ccccc1
 : 1, -1
CCCc1noc(CN2CCN(c3ccccc3C)CC2C)n1 (configuration not stated)
 : 9, 5
Clc1cccc(CSc2nnc3ccc(-c4ccncc4)nn23)c1
 : -15, -8
CC(=O)c1cccc(NC(=O)CCCc2nc(-c3ccccc3)no2)c1
 : 11, 5
Fc1ccc(CN2CCCn3cccc3C2c2ccoc2)cc1Cl (configuration not stated)
 : -8, 10
COC(=O)[C@@H](NC(=O)C1CCN(c2nc(C)c3cc(C)ccc3n2)CC1)C(C)C
 : 9, -1
COc1cc(C)cc2c1OC/C(=C\c1ccc(C#N)o1)C2=O
 : 0, -2
Cc1cc(C)n(CCN(C)C(=O)CC2(c3ccccc3Cl)CC(=O)N(C3CCCC3)C2=O)n1 (configuration not stated)
 : 18, 10
CCc1nc2ccc(C(=O)NCc3ccc(OC)cc3)cn2c1N(C)C(=O)c1ccncc1
 : 17, 14
COc1ccc(S(=O)(=O)N2CCN(Cc3nnnn3-c3ccccc3)CC2)cc1
 : 1, 0
FC(F)n1c(=S)[nH]c2ccccc21
 : 10&5, 12&2
CCCCn1c(C)c(C)n2c3c(=O)n(CCC(=O)OC)c(=O)n(C)c3nc12
 : -2, 26
CCC1=NOC(C(=O)NCc2csc(-c3cnccn3)n2)C1 (configuration not stated)
 : 19, 11
O=c1cc(-c2ccccc2)nc(SCCOc2ccccc2)[nH]1
 : 11, 11
CN1CCN(c2ccc(S(=O)(=O)N3CCOCC3)cc2N)CC1
 : 1, 0
CC1=C(C(=O)OCCOc2ccccc2)C(c2cccc(Oc3ccccc3)c2)NC(=O)N1 (configuration not stated)
 : -3, -8
O=C(Nc1ccc2c(c1)CN(C(=O)Cc1ccsc1)CC2)C1CCCO1 (configuration not stated)
 : 2, 0
CCc1ccc(-n2c(C)cc(C=NO)c2C)cc1
 : 6, 6
CCc1[nH]n(-c2ccccc2)c(=O)c1C1=C([n+]2cc(C)cc(C)c2)C(=O)N(c2ccccc2)C1=O
 : -5, -1
O=C(O)CNc1cccc(C(=O)N2CC=CC2)c1
 : -4, -6
CCC(C)C(NC(=O)c1cccc(C(F)(F)F)c1)C(=O)Nc1nnc(-c2ccc(N(C)C)cc2)s1 (configuration not stated)
 : 10, 8
c1ccc(-c2ncn(CCN3CCCC3)c2-c2nc3ccccc3[nH]2)cc1
 : 4, -7
CCn1c(/C(Cl)=C/c2csnn2)nc2cc(F)ccc21
 : 1, -1
Cc1ccc(C)c(S(=O)(=O)N2CCN(c3ccc([N+](=O)[O-])cn3)CC2)c1
 : -6, 11
Cc1[nH]c(-c2ccoc2)nc1-c1ccccc1
 : -6, -6
COc1cc(C2c3c(n[nH]c3C)OC(=N)C2C#N)cc(OC)c1OC (configuration not stated)
 : 0, -7
CCOC(=O)CC1(NC(=O)C2CCC(=O)N(CCc3ccccn3)C2)CCCCC1 (configuration not stated)
 : -9&9, -9&2
COc1cccc(-c2cc(C(=O)N3CCN(c4cccc(C(F)(F)F)c4)CC3)n(-c3ccc(C)cc3C)n2)c1
 : -4, -4

Later entries:
structure | NPYLR7 agonist | NPYLR7 agonist max-min
CCC(C)(NC(=O)c1cccc(Oc2nccs2)c1)C(=O)OC (configuration not stated) | 2 | 3
CCc1nc2n(n1)C(=O)C(C(c1ccccc1F)N1CCN(CCO)CC1)S2 (configuration not stated) | -3 | -8
O=C(CCCNC(=O)c1ccc(=O)[nH]c1)Nc1ccc(Cl)cc1 | 5 | 1
COCCCc1nc(-c2cc(Cl)sc2Cl)cs1 | 0 | 0
CS(=O)c1nncn1Cc1csc(Cc2ccccc2)n1 (configuration not stated) | -5 | -8
N#CC1C(=N)Oc2n[nH]c(C(F)(F)F)c2C1c1ccccc1F (configuration not stated) | -1 | -3
CCOc1ccc(C#N)cc1NCC(=O)N1CCCC(C)C1 (configuration not stated) | 0 | 0
CC(Sc1nnc2ccccn12)C(=O)Nc1ncc(Cl)cc1Cl (configuration not stated) | 1 | -1
CN(C)CC1(O)CCCN(CC(=O)Nc2cnn(C)c2)CC1 (configuration not stated) | -2 | -4
CCCN1CCC(Cc2noc([C@@H]3CCCCN3)n2)CC1 | 5 | 3
Cc1cccc(N=Nc2c(O)[nH]c3ccc(Br)cc23)c1C | -1 | -6
Cc1nc(-c2c(C)c(C)nn(C)c2=O)sc1C(=O)Nc1ccccc1 | -2 | -4
COc1ccc(CCNC(=O)c2ccc(-c3ccc(OC)c(OC)c3OC)s2)cc1OC | 3 | 0
Cc1ccc2nc(COC(=O)Cn3cnc4c3c(=O)n(C)c(=O)n4C)cc(=O)n2c1 | 11 | 12
CCc1ccc2nc(NC3=NCN(CC4CCCO4)CN3)nc(C)c2c1 (configuration not stated) | -2 | -7
COc1ccc(CC(=O)Nc2cc(C)nn2-c2nc(-c3cccs3)cs2)cc1OC | -8 | -15

Single records (already shown). Screens in order: NPYLR7 agonist, NPYLR7 agonist max-min
`COC(=O)[C@@H](NC(=O)C1CCN(c2nc(C)c3cc(C)ccc3n2)CC1)C(C)C` in the list: 9, -1
`CCc1[nH]n(-c2ccccc2)c(=O)c1C1=C([n+]2cc(C)cc(C)c2)C(=O)N(c2ccccc2)C1=O` in the list: -5, -1
`Cc1ccc(C)c(S(=O)(=O)N2CCN(c3ccc([N+](=O)[O-])cn3)CC2)c1` in the list: -6, 11
`CCc1nc2n(n1)C(=O)C(C(c1ccccc1F)N1CCN(CCO)CC1)S2` (configuration not stated) in the list: -3, -8

Next entries
structure | NPYLR7 agonist | NPYLR7 agonist max-min
CC(C)C(=O)N1CCN(c2c(F)c(F)c(F)c(F)c2F)CC1 | 7 | 14
COc1ccc(C(=O)Nc2nc(-c3ccc(Br)cc3)cs2)cc1OC | -6 | -8
CC(C(=O)Nc1ccc(Cl)cc1)n1nc(-c2ccco2)oc1=O (configuration not stated) | -4 | -5
Cc1cc(C)n(CCC(=O)N(Cc2ccccc2Cl)C2CC2)c(=O)n1 | 6 | 5
CC1=[N+]([O-])C(C)(C)CC(C)c2ccccc21 (configuration not stated) | -9 | -13
Nc1c(C(=O)CSc2nnc(-c3cccs3)n2C2CC2)c(=O)[nH]c(=O)n1C1CC1 | -1 | 9
Cc1ccc(C(=O)NC2COc3c2ccc(Cl)c3Cl)c(=O)[nH]1 (configuration not stated) | 12 | 9
O=C(Nc1ccc(Oc2ccc(Cl)cc2)c(Cl)c1)c1cc(I)cc(I)c1O | -21 | -29

4 successive records from above, quoted:
structure | NPYLR7 agonist | NPYLR7 agonist max-min
CC1=[N+]([O-])C(C)(C)CC(C)c2ccccc21 (configuration not stated) | -9 | -13
Nc1c(C(=O)CSc2nnc(-c3cccs3)n2C2CC2)c(=O)[nH]c(=O)n1C1CC1 | -1 | 9
Cc1ccc(C(=O)NC2COc3c2ccc(Cl)c3Cl)c(=O)[nH]1 (configuration not stated) | 12 | 9
O=C(Nc1ccc(Oc2ccc(Cl)cc2)c(Cl)c1)c1cc(I)cc(I)c1O | -21 | -29

Following part:
structure | NPYLR7 agonist | NPYLR7 agonist max-min
CCn1c(O)c(C(C)=Nc2sc3c(c2C#N)CCC3)c(=O)n(CC)c1=S | 10 | 10
COc1ccc(-n2c(SCc3ccc(Cl)c(Cl)c3)nnc2-c2cccc(C)c2)cc1 | -1 | 2
O=C(Nc1nnc(SCCc2ccccc2)s1)c1ccco1 | -3 | 8
NC(=O)CN1CCN(Cc2ccc(Cl)c3cccnc23)CC1 | 0 | -1
O=C(O)/C=C/C(=O)NNC(=O)C1CC2CCC1C2 (configuration not stated) | 3 | 1
CCOC(=O)C1=C(CN2CCNC(C)C2)N(CC)C(=O)NC1c1ccccc1C (configuration not stated) | 19 | 6
CNc1nnc(SC(C)c2nnc(-c3ccc(C)cc3)o2)s1 (configuration not stated) | 0 | 5
CCC(=O)N1CCC1(C)C(=O)Nc1ccc2scnc2c1 (configuration not stated) | -1 | -1
CCCC(=O)NC(c1ccccc1OC)c1ccc2cccnc2c1O (configuration not stated) | -3 | -8
COc1ccc(S(=O)(=O)NCCOc2ccccc2F)cc1[N+](=O)[O-] | -2 | -6
CC(OC(=O)CC1CCCO1)c1c(F)cccc1N1CCOCC1 (configuration not stated) | 4 | 4
CCn1cc(C(CC(=O)N2CCC3(CC2)OCCO3)c2cccc(C)c2)c2ccccc21 (configuration not stated) | 1 | 9
Nc1nc(NC(=O)C(Cl)(Cl)Cl)nn1-c1ccccc1 | -4 | 31
CC1(C)CC(=O)C2=C(C1)OC1=C(C2)C(=O)CC(C)(C)C1 | 10 | 6
CC(C)CNC(=O)c1ccccc1N1CCC(NC(=O)c2ccc3c(c2)OCO3)CC1 | 19 | 20
CCN1CCCC(C)(C(=O)NCc2nccn2Cc2ccccc2)C1 (configuration not stated) | -1 | -2
O=P1(NCCO)C=C(c2ccccc2)OC(c2ccccc2)=C1 | 10 | 5
COC(=O)Cn1c(=O)c2c(nc(-n3nc(C)cc3C)n2C(C)C)n(C)c1=O | 10 | 9
CC(Oc1cc2oc(=O)cc(-c3ccccc3)c2cc1Cl)C(N)=O (configuration not stated) | -13 | -7
Cc1ccc(Cn2cc(C(=O)NNC(=O)Nc3ccccc3)ccc2=O)cc1 | 3 | -1
COc1cccc(CC(=O)NC2CCSc3ccc(F)cc32)c1 (configuration not stated) | 5 | 0
Cc1cccc2c1NC1(CCN(S(=O)(=O)c3ccc(C(C)(C)C)cc3)CC1)NC2=O | -3 | 5
CN(C(=O)c1ccccn1)C(Cc1ccccc1)C1CCN(C(=O)c2cccc(-n3cccn3)c2)CC1 (configuration not stated) | -3 | -6
CC(C)(O)C#Cc1ccc(CN2CCn3nc(C(=O)O)cc3C2)s1 | -17 | -14
CCSc1nc(NC(C)C)c2cnn(CCNC(=O)C34CC5CC(CC(C5)C3)C4)c2n1 | 1 | -1
CC(C)c1noc(C(C)N2Cc3ccccc3C(c3ccccc3)C2)n1 (configuration not stated) | 4 | -20
Cc1ccsc1C(=O)NCc1c(C)noc1C | -15 | -21
COc1ccccc1-c1nn(CN(C)Cc2sccc2C)c(=S)n1C | 1 | -1
Cc1ccc(COC2C[C@](OCc3ccccc3C)(C(=O)NCC3CC3)C[C@H]3OC(C)(C)O[C@@H]23)cc1 (some centres not stated) | 8 | 17
CCN(CC)CCCNC(=O)Cn1ncn2cccc2c1=O | 7 | 4
Cc1ccc(-n2ncc3c(C)nn(CC(N)=O)c(=O)c32)cc1C | 6 | 3
O=C(O)c1cc(=O)[nH]c(=O)[nH]1 | 6 | 4
Cc1cc(=O)n2c(n1)SCC2CC(=O)N1CCCC1 (configuration not stated) | 0 | -2
CCOc1cc(C(=O)Nc2cc(C(=O)N(C)C)ccc2Cl)ccn1 | -2 | -4
O=C(NCCCc1nnc2ccccn12)c1ccccc1N1CCCC1 | 21 | 9
